VACV mCherry inh – inhibitors of vaccinia virus infection (mCherry reporter signal) | Vaccinia virus mCherry reporter infection, fluorescence; about a quarter of the inactives have no number | Potency, µM (titrated, usually from 36.5 µM), without a hit: at the highest dose activity change, negative = inhibition, most hits filed as inhibitors | actives 0.63% (n = 310,000); active = well fitted inhibition curve with a large enough effect; inconclusive = small, poorly fitted or top-dose-only effect; inactive = no such curve, though single readings can be large or run the other way; tested in A549 cells; further: nearly all actives have a fitted effect of over 35% in size; inactives centre near -10
VACV Venus inh – vaccinia inhibition (Venus reporter) | Potency, µM (titrated, usually from 36.5 µM), without a hit: top-dose activity change, negative = inhibition, hits mostly inhibitors | actives 0.46% (n = 330,000) | Vaccinia virus Venus reporter expression, fluorescence | AID 720580; active means well fitted inhibition curve with a large enough effect; inconclusive means small, poorly fitted or top-dose-only effect; inactive means no such curve, though single readings can be large or run the other way; tested in A549 cells; further: nearly all actives have a fitted effect of over 30% in size; inactives centre near -10
Active calls of the source: *; i = inactive; ? = inconclusive; . = no result given; & = joins results of further samples; [ ] = dose if it differs, or a comment. On the % scale 0 is the no-effect control and ±100 the full control effect; potency means the concentration at half of the fitted maximal effect.

smiles | VACV Venus inh | VACV mCherry inh
CCC1C(=O)C[C@H]2CCN3C(=O)CCCC1C23 (stereo not given in full) | -3% | i
Cn1c(N)c(C(=O)COC(=O)C2CC(O)CN2S(=O)(=O)c2ccc(Cl)cc2)c(=O)n(C)c1=O (stereo not given) | -15% | i
NCCCC(O)(P(=O)(O)O)P(=O)(O)O | -11% | -12%
O=C(NCc1nc2ccccc2[nH]1)c1ccco1 | -12% | .
CC1CCCC(C)N1C(=O)COC(=O)CSc1ccc([N+](=O)[O-])cc1 (stereo not given) | -6% | -14%
Nc1cccc2[nH]cnc12 | -16% | i
CCOC(=O)C(C(=O)OCC)C1OC(=O)c2cc3c(cc21)C(=O)OC3C(C(=O)OCC)C(=O)OCC (stereo not given) | -3% | -2%
Cn1c(=O)c2c(-c3ccccc3)n3c(c2n(C)c1=O)C(c1cccc([N+](=O)[O-])c1)Nc1ccccc1-3 (stereo not given) | -16% | -22%
COc1ccc(S(=O)(=O)N2CCOCC2)cc1NC(=O)CCc1nc2ccccc2c(=O)[nH]1 | -10% | i
COc1cccc2cc(C(=O)Nc3ccccc3C(=O)N3CCOCC3)oc12 | -19% | 14%
CCn1nc(C)c2c(-c3ccccc3)cc(=O)n(C(C)C(=O)NCc3ccccc3OC)c21 (stereo not given) | 2% | -11%
COc1ccc(S(=O)(=O)N2CCCCCC2)cc1NC(=O)Cc1cccc(C(F)(F)F)c1 | -19% | -4%
Cc1cc2c(ccc3c2no[n+]3[O-])nn1 | -8% | .
Cc1ccc(CNC(=O)c2ccc3c(c2)S(=O)(=O)c2ccccc2C3=O)cc1 | -5% | -13%
O=C(CSc1nc2c([nH]c3ccccc32)c(=O)n1-c1ccccc1)NCc1ccc(F)cc1 | 3% | 3%
O=C(Nc1ccccc1C(=O)OCc1cc(=O)n2nc(C3CC3)sc2n1)c1cccc(F)c1 | -7% | -7%
CN1C(=O)/C(=C2/C=Cc3ccccc3N2CCCS(=O)(=O)O)SC1=S | 13% | -28%
Cn1nnc2cc(C(=O)NC3CC3)ccc21 | -7% | .
O=C(NCC12CC3CC(CC(C3)C1)C2)c1cc2nc(-c3ccccc3)cc(C(F)(F)F)n2n1 | -9% | -14%
[N-]=[N+]=NC[C@H](Cc1ccccc1)N1CC[C@@H](OCc2ccccc2)CCC1=O | -19% | i
CCOc1ccc(C(=O)SC2=NCCS2)cc1 | -8% | i
COC[C@H](NS(=O)(=O)c1ccc(Br)cc1F)[C@@H](O)c1ccccc1 | -8% | i
CC(C)N1CC2(CC(c3ccccc3F)=NO2)CN1C(=O)c1ccco1 (stereo not given) | -10% | 6%
O=C(COc1cccnc1[N+](=O)[O-])Nc1cc(Cl)ccc1Cl | 13% | -6%
OC(c1ccc2c(c1)OCO2)c1ncc(-c2ccc(Cl)cc2)[nH]1 (stereo not given) | -8% | i
Cc1cc(=O)oc2cc(OCC(=O)NC3CCCC3)ccc12 | 8% | -4%
CN(C)CC(=O)c1c(N)n(Cc2ccccc2)c(=O)n(C)c1=O | -12% | -8%
CCC(C)C(Nc1ncnc2scc(-c3ccccc3)c12)C(=O)O (stereo not given) | -14% | -4%
CC1CCN(C(=O)Cn2c(SCC(=O)Nc3ccc(F)cc3)nc3ccccc32)CC1 | -3% | -13%
CCCNc1c(NC(=O)c2cccs2)c(=O)oc2ccccc12 | -20%[7.34 µM] | i[7.34 µM]
O=c1c2[nH]c3cccc(Cl)c3c2ncn1CCN1CCCCC1 | 4% | .
O=C(CCS(=O)(=O)c1ccccc1)Nc1ccccc1N1CCOCC1 | -13% | -7%
C=CCn1c(SCC(=O)Nc2cc(C)on2)nnc1-c1ccncc1 | -6% | i
CS(=O)(=O)N1CCc2cc(C(=O)N3CCN(c4ccccc4F)CC3)ccc21 | -13% | -6%
Cc1cccc(OCCCC(=O)Nc2ccc(N(C)C)cc2)c1 | -5% | -17%
COc1ccccc1OCCNC(=O)c1ccco1 | -6% | -1%
Cc1ccccc1-c1cc2nc(Nc3ccc(F)cc3)n(C)c(=O)c2s1 | -7% | 20%
CCc1ccc(S(=O)(=O)c2c(C(=O)c3ccc(C)c(C)c3)cnc3ccccc23)cc1 | -8%[7.34 µM] | -2%[7.34 µM]
Cc1c(C(=O)Nc2ccccc2[N+](=O)[O-])csc1-c1ccccc1 | ? | ?
COc1ccc(NS(=O)(=O)c2ccc(C)c(C(=O)NCc3cccnc3)c2)cc1 | -4% | -8%
CN(C(=O)CCNC(=O)Cn1cnc2ccccc2c1=O)c1ccc(F)cc1 | 7% | i
Cc1cc(C)n2nc(C)[n+](C)c2n1 | -20% | .
Cc1ccccc1N1CCN(S(=O)(=O)c2ccccc2)CC1 | 7% | -9%
CCN(CC)CCOC(=O)c1ccccc1Br | -18% | -3%
CCc1cc2c(SCC(=O)NC3CCCC3)ncnc2s1 | -7% | -9%
CCN(CC)C(=O)c1c(NC(=O)c2cccc(C)c2)sc2c1CCC(C)C2 (stereo not given) | -17% | -20%
Cc1ccc(C)c(NS(=O)(=O)c2cc(C(=O)NCc3ccccn3)ccc2C)c1 | -18% | -24%
Cc1ccsc1/C=N/NC(=O)Nc1ccccc1 | -12% | -5%
c1ccc(Cc2nnc3sc(C4COc5ccccc5O4)nn23)cc1 (stereo not given) | -8% | -14%
O=C(Nc1ccc(C(=O)N2CCCC2)cc1)Nc1ccc(Cl)cc1Cl | 3% | -1%
CCOC(=O)C1=NN(C(=O)c2ccccc2)C(O)(c2ccc(C)cc2)C1 (stereo not given) | 6% | i
CCc1cccc(NC(=O)c2ccc(CN3C(=O)C(C)=C(c4ccc(OC)cc4)S3(=O)=O)cc2)c1 | -13% | -7%
COc1ccc(C(CC(=O)NCCCN2CCOCC2)NS(=O)(=O)c2ccc(C)cc2)cc1 (stereo not given) | ? | .
COC(=O)c1[nH]c2ccc(C)cc2c1NC(=O)CN1CCN(C(=O)c2ccccc2)CC1 | -16% | -7%
C/C(=N\NC(=O)c1cc(C)nc2ccccc12)c1ccncc1 | -28% | i
CNc1cnn(-c2ccc(C)cc2)c(=O)c1Sc1ccc(C)cc1 | 0% | i
CC1(C)CC(C(=O)NCCC(c2ccccc2)c2ccco2)CCO1 (stereo not given) | -8% | -12%
O=C(/C=C/c1ccc(F)cc1)NCC1Cc2cccc(-c3ncccn3)c2O1 (stereo not given) | -8% | -18%
O=C(CN(Cc1ccccc1)S(=O)(=O)c1ccc(F)cc1)NCc1ccncc1 | -10% | -25%
COc1ccc(CNC(=O)CN2C(=O)C(C)N(c3ccc(C)cc3)C2=O)cc1 (stereo not given) | -16% | -5%

The list continues:
smiles | VACV Venus inh | VACV mCherry inh
C[C@@H](C(=O)Nc1nc2ccccc2s1)N1C(=O)C2CC=CCC2C1=O (stereo not given in full) | -6% | i
CN1CCC(N(C)Cc2cccnc2)CC1 | -8% | -6%
COc1cc(OC)nc(Nc2nc(C(C)N)cs2)n1 (stereo not given) | -1% | -9%
COc1cc(C(F)(F)F)nc(-c2ccccn2)n1 | 2% | i
CCOc1ccc(-c2nonc2NC(=O)c2oc3ccc(F)cc3c2C)cc1 | ? | ?
O=C(NCCc1ccc(F)cc1)c1cc(=O)c2ccccc2o1 | 0% | -16%
O=C(NCCNC(=O)c1ccc(Cl)cc1Cl)c1ccc(Cl)cc1Cl | -2% | 24%
CCn1c(NC2CCCCC2)nc2ccccc21 | -7% | -16%
c1ccc(-c2noc(-c3ccccc3-c3ccccc3)n2)cc1 | -11% | -22%
COc1cccc(-n2nnc3c(=O)n(Cc4cccc(F)c4)cnc32)c1 | -15% | -28%
CCOc1ccc(NC(=O)Cc2ccc(NC3=NC4CS(=O)(=O)CC4S3)cc2)cc1 (stereo not given) | -19% | i
COc1ccc(OC)c(-c2c(=O)n(OCc3ccccc3Br)c3ccccc3[n+]2[O-])c1 | -17% | -15%
COc1nc(OC)nc(N2CCC(NC(=O)C(Cc3cccc(OC)c3OC)NC(C)=O)CC2)n1 (stereo not given) | 16%[7.34 µM] | 8%[7.34 µM]
CC(O)(c1ccccc1)c1nc(-c2cccc(C(F)(F)F)c2)cs1 (stereo not given) | ? | ?
O=C1Cc2ccccc2Sc2ccccc21 | 7% | .

3 records picked at random from those above:
smiles | VACV Venus inh | VACV mCherry inh
C=CCn1c(SCC(=O)Nc2cc(C)on2)nnc1-c1ccncc1 | -6% | i
[N-]=[N+]=NC[C@H](Cc1ccccc1)N1CC[C@@H](OCc2ccccc2)CCC1=O | -19% | i
CN(C)CC(=O)c1c(N)n(Cc2ccccc2)c(=O)n(C)c1=O | -12% | -8%

More results follow.
smiles | VACV Venus inh | VACV mCherry inh
CCOC(=O)c1ccccc1NC(=O)N1CCOc2ccc(Cl)cc21 | -14% | -4%
O=c1c(C=NCc2cccnc2)c(C(F)(F)F)[nH]n1-c1nc2ccccc2s1 | -5% | -5%
Cc1cccc(NC(=O)CSc2nc3ccccc3nc2N2CCCCC2)c1C | -2% | -7%
O=C(O)CCCC(=O)Nc1ccc(Br)cc1C(=O)O | -9% | -17%
COCCN(C(=O)COC(=O)C1(c2ccccc2)CC1)c1c(N)n(CC(C)C)c(=O)[nH]c1=O | 3% | -10%
CCN(CC)/C(=N/O)NC(=O)NS(=O)(=O)c1ccc(C)cc1 | -2% | .
CC(C(=O)Nc1ccc([N+](=O)[O-])cc1)N1CCN(C/C=C/c2ccccc2)CC1 (stereo not given) | -28% | -29%
COc1cccc(NC(=S)NN2CCN(C)CC2)c1 | -7% | .
O=C(c1ccccc1F)N(Cc1ccc2c(c1)OCO2)Cc1cc2cc3c(cc2n2nnnc12)OCO3 | -9% | .
COc1c(/C=N/NC(N)=S)c(C)nn1-c1ccccc1 | ? | ?
C[C@H](CO)N1C[C@H](C)[C@@H](CN(C)C(=O)Nc2ccccc2)Oc2c(cccc2N(C)C)C1=O | -11% | i
COCC(C)N1CCC(n2nccc2NC(=O)c2ccc3c(c2)OCO3)CC1 (stereo not given) | -7% | -11%
c1ccc(COc2ccccc2CNC23CC4CC(CC(C4)C2)C3)cc1 | ? | -20%
NC1=NC(=O)C(c2ccccc2)C(=O)N1 (stereo not given) | 4% | 1%
COC(=O)c1[nH]c2cc(OC)ccc2c1N | -3% | -3%
Cn1cccc1C(=O)C(=O)Nc1ccccc1 | -5% | .
CC(C)CCN(CC(=O)NC1CCCC1)C(=O)C(=O)Nc1ccc2c(c1)OCCO2 | 0% | -15%
Cc1c(OCC(N)=O)ccc2c(-c3ccccc3)cc(=O)oc12 | 5% | 3%
CCOc1ccccc1NC(=O)CSc1nccn1-c1ccccc1 | -9% | .
CC1CCCCN1S(=O)(=O)c1ccc(C(=O)N2CCOCC2)cc1 (stereo not given) | -3% | i
Cc1ccc(N(CC(=O)NC(C)(C)C)C(=O)CCC(=O)Nc2nccs2)cc1C | -15% | -15%
Cc1cc(Br)cc(Br)c1OCC(=O)NNC(=O)c1ccoc1C | -15% | -14%
Oc1cccc(CCC2CCCCN2Cc2cn[nH]c2-c2ccc3c(c2)OCO3)c1 (stereo not given) | 0% | -25%
O=C1CSC(c2cccc(F)c2)N1c1ccccc1F (stereo not given) | -11% | -12%
COc1cccc(OC)c1C(=O)Nc1nc2ccc(S(C)(=O)=O)cc2s1 | 5% | i
CCOc1cc(/C=N/NC(=O)CSc2cccc3cccnc23)ccc1O | -19% | ?
Cc1ccc(-c2nc3ccc(NS(=O)(=O)c4ccccc4)cc3[nH]2)o1 | -25% | -15%
COc1ccc(-c2cn(CC3CCCCC3)nn2)cc1 | -2%&-3% | -5%&-4%
CCN(C(=O)COC(=O)c1ccccc1O)c1nc2ccccc2s1 | -3% | -1%
Clc1cccc(CNCCCSc2ncccn2)c1 | -5% | -13%
COc1ccccc1/C=C/C=N/NC(=O)CN1CCN(Cc2ccccc2)CC1 | -19% | -28%
Cc1ccc(NC(=O)CN2CCSc3ccc(S(=O)(=O)N4CCCC4)cc32)cc1C | 0% | -14%
COC(=O)[C@]12CCCCC=C1N(Cc1ccccc1)C(=O)[C@H](CC(=O)N1CCSCC1)C2 | -12% | -15%
Cc1ccnc(NC(=O)CCC(=O)N(CC(=O)NC2CCCCC2)Cc2ccccc2)c1 | -17% | -6%
NC(=O)c1cccc(-c2ccnc3c2CC(C(=O)Nc2ccc(Cl)cc2)O3)c1 (stereo not given) | -16% | -24%

Part of the list above, as labelled records:
smiles: NC(=O)c1cccc(-c2ccnc3c2CC(C(=O)Nc2ccc(Cl)cc2)O3)c1 (stereo not given)
  VACV Venus inh = -16%; VACV mCherry inh = -24%

smiles: Cc1ccc(NC(=O)CN2CCSc3ccc(S(=O)(=O)N4CCCC4)cc32)cc1C
  VACV Venus inh = 0%; VACV mCherry inh = -14%

smiles: COC(=O)[C@]12CCCCC=C1N(Cc1ccccc1)C(=O)[C@H](CC(=O)N1CCSCC1)C2
  VACV Venus inh = -12%; VACV mCherry inh = -15%

smiles: COc1ccccc1/C=C/C=N/NC(=O)CN1CCN(Cc2ccccc2)CC1
  VACV Venus inh = -19%; VACV mCherry inh = -28%
